# Source: PubChem (several laboratories)
# Mtb growth – M. tuberculosis H37Rv growth inhibitors, H37Rv strain (AID 1626); M. tuberculosis H37Rv growth inhibition; higher % means a stronger effect; inhibition, % at 10 µM; hits with a dose series show IC50 in µM; actives 0.95% (n = 220,000);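 active = confirmed in a dose series; inconclusive = inhibition above 80% but not taken into the dose series; inactive = below 80% or under 30% at every dose of the series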;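 note: bacteria incubated seven days before Alamar blue readout; 0% = bacteria only wells and 100% = bacteria with antibiotic wells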
# YopH inh – YopH (Yersinia) phosphatase inhibition; inhibition, %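 (about 10 µM by stock and volumes)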; AID 898; fluorescence Ex485/Em525; actives 0.16% (n = 140,000);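 active = inhibition of 50% or more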;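 note: controls were vehicle for no effect and minimum signal wells for full effect; inactives centre near -20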
# Arbovirus inh – antivirals against arbovirus infection. arbovirus infection cell-based antiviral screen. inhibition, % at 10 µM. actives 0.37% (n = 200,000);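 active = inhibition from about 30%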;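 note: bluetongue infection of BSR cells; cell survival read as ATP light after 72 h; 0% = infected wells without compound and 100% = uninfected wells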
# Mtb bLac sens – beta-lactam sensitization of Mtb H37Rv; inhibition, % at 25 µM; actives 0.27% (n = 330,000); M. tuberculosis H37Rv growth with meropenem, percent inhibition; hits of this screen are not shown here;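 active = about 74% or more and at least 40 points above the plate without the antibiotic, then above 30% in a dose series; inconclusive = first-round hits that could not be retested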;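 note: growth measured after seven days incubation then overnight dye step; 0% = bacteria only wells and 100% = bacteria with antibiotic; twin plates without the antibiotic show which effects depend on it; some results filed as inactive read as strong as hits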
# RecA splice inh – inhibitors of M. tuberculosis RecA intein splicing | inhibition, %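 (about 9 µM by stock and volumes)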 | P9WHJ3 | actives 0.75% (n = 290,000) | AID 2221 | cell-free RecA intein splicing, fluorescence; in the data active = inhibition above about 30%; inconclusive = no clear call, values can overlap the other calls;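 note: 0% = vehicle wells and 100% = reference inhibitor control wells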
# Target sequence (P9WHJ3 whole entry, looked up, canonical isoform): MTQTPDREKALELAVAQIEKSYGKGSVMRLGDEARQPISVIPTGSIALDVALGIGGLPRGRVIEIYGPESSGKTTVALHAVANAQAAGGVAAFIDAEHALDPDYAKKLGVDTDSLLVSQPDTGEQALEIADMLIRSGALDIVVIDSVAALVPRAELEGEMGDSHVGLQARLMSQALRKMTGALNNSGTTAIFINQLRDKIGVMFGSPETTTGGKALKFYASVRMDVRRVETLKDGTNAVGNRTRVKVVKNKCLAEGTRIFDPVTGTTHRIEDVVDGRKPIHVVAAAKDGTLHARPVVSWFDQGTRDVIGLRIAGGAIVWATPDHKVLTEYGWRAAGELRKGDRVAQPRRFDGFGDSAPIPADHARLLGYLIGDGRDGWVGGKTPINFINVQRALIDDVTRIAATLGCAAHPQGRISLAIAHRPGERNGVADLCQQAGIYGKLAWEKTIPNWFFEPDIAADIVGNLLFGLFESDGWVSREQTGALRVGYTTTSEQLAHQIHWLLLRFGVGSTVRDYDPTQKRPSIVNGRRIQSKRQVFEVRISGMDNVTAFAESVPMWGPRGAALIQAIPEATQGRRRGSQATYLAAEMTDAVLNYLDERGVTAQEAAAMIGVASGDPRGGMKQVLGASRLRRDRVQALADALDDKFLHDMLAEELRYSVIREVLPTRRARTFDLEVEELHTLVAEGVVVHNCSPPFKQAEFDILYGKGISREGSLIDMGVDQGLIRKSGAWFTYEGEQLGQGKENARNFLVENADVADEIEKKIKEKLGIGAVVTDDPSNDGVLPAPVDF
# Arbovirus inh repeat – also measured in Arbovirus inh; calls as there; inhibition, %; measured here: 10K subset replicate screen; many hits read low in the repeat;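 first of two repeat runs on a subset; 0% = infected and 100% = uninfected wells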
# * marks the source's active call; other numbers are inactive results; ? = inconclusive; / = not tested or not shown.
SMILES,Mtb growth,YopH inh,Arbovirus inh,Mtb bLac sens,RecA splice inh,others
CN1CCN(c2nc([N+](=O)[O-])nn2C)CC1,-1%,-21,2,-5,-2.7,
COc1ccc(C2NC(=O)N(CCCC(=O)O)C(C)=C2C(=O)OCc2ccccc2)cc1 (stereo not given),-11%,/,/,4,-0.2,
CSc1nc2c(c(=O)[nH]1)C(c1cccc(Cl)c1)CC(=O)N2 (stereo not given),8%,/,3,-4,2.4,
Cc1cccc2c(N=O)c(O)[nH]c12,-2%,/,/,-9,0.3,
Cc1onc(-c2c(Cl)cccc2Cl)c1C(=O)ONC(=O)c1ccccc1,-9%,/,/,-9,2.0,
Cc1ccc(NC(=O)CCc2nc3sc4c(c3c(=O)[nH]2)CCCC4)nc1,/,/,/,-11,-1.1,
CN1CCN(c2c[nH]c(=O)[nH]c2=O)CC1,-1%,-26,-2,-5,0.9,
CCOP(=O)(/C(C#N)=C(/O)c1ccccc1)c1ccccc1 (stereo not given),-3%,/,/,-5,/,
Cc1ccc(NC(=O)CN2CCOCC2)cc1C,/,/,/,3,-0.9,
CN1CCc2c(OCc3ccc(F)cc3)cccc2C1=O,11%,/,8,-2,7.1,
COc1cccc2c1Oc1ncccc1N(C(=O)CCC(=O)NCc1cccc(C)c1)C2,/,/,/,-1,-1.4,
CCOC(=O)[C@H](CCc1ccccc1)N[C@H]1CCc2ccccc2N(CC(=O)O)C1=O,13%,/,/,4,0.9,
CCOc1cc(C(c2c(C)[nH][nH]c2=O)c2c(C)[nH][nH]c2=O)ccc1O,-19%,9,-11,3,96*,
O=C(c1ccco1)N1CCN(Cc2nc3ccc([N+](=O)[O-])cc3c(=O)n2-c2ccccc2F)CC1,-3%,-35,-12,-1,/,
FC(F)(F)c1cc(CCN2C(=S)NC[C@@H]2Cc2ccccc2)cc(C(F)(F)F)c1,-3%,/,-22,-1,9.6,
CN(C)c1ccc(/C=C(/NC(=O)c2ccccc2Cl)C(=O)NCCN2CCOCC2)cc1,/,/,/,-6,-8.8,
Cc1ccc(NC(=O)c2cc(S(=O)(=O)N3CCCCC3)c[nH]2)cc1C,/,/,/,-1,-1.8,
O=C(c1ccc2c(c1)OCO2)N1CCCC(c2ccccc2)C1 (stereo not given),7%,-11,-6,6,3.0,
Cc1ccc(N(C(=O)C2CCC(=O)N2)C2(C(=O)NC3CCCC3)CCCCC2)cc1 (stereo not given),-5%,-2,6,?,-0.3,
COc1ccc(/C=C/C(=O)Nc2nonc2NC(C)=O)cc1,-2%,8,4,2,-0.7,
Cc1cc2ccccc2cc1CN1CCOCC1,-11%,-45,4,-1,-0.2,
OC(COc1ccc2c(c1)OCO2)CN1CCCCC1 (stereo not given),1%,/,4,0,-0.8,
C=CCc1ccc(OCCN2CCc3ccccc3C2)c(OC)c1,7%,/,14,0,7.5,
O=C1CCCN1CC(O)CS(=O)(=O)c1ccccc1 (stereo not given),1%,-22,1,-13,-4.6,
COc1cc(/C=N/NC(=O)c2sc3nc(C)cc(C)c3c2N)ccc1O,-9%,/,/,3,-11,

# Reprinted from the part before: six compounds, then new ones.
SMILES,Mtb growth,YopH inh,Arbovirus inh,Mtb bLac sens,RecA splice inh,others
COc1ccc(/C=C/C(=O)Nc2nonc2NC(C)=O)cc1,-2%,8,4,2,-0.7,
Cc1cc2ccccc2cc1CN1CCOCC1,-11%,-45,4,-1,-0.2,
OC(COc1ccc2c(c1)OCO2)CN1CCCCC1 (stereo not given),1%,/,4,0,-0.8,
C=CCc1ccc(OCCN2CCc3ccccc3C2)c(OC)c1,7%,/,14,0,7.5,
O=C1CCCN1CC(O)CS(=O)(=O)c1ccccc1 (stereo not given),1%,-22,1,-13,-4.6,
COc1cc(/C=N/NC(=O)c2sc3nc(C)cc(C)c3c2N)ccc1O,-9%,/,/,3,-11,
CCCCC1=CC2=CC(=O)C(C)(OC(=O)CC)C(=O)C2=CN1Cc1ccc(OC)cc1 (stereo not given),-5%,/,/,1,-6.8,
COc1cc2c3c(c1)C(C)=CC(C)(C)N3C(=O)C2=O,-3%,/,-16,6,1.3,
O=C(NC1CCCCNC1=O)c1ccccc1 (stereo not given),/,/,/,-8,-4.9,
N=C1/C(=C\c2ccc(-c3cc(Cl)cc(Cl)c3)o2)C(=O)N=C2SC=C(c3ccccc3)N12,6%,-8,-9,5,-0.1,
CC(C)NC(=S)N=Nc1c(O)[nH]c2ccc([N+](=O)[O-])cc12,1%,/,4,1,-2.5,
O=C1CSC(c2ccccn2)N1c1ccc2ccccc2c1 (stereo not given),1%,20,1,-6,1.0,
O=C(CN1CCOCC1)Nc1ccc(N2CCN(c3ccccc3)CC2)c(F)c1,4%,/,2,-7,0.1,
CN(Cc1ccccc1)c1nc(-c2ccc([N+](=O)[O-])cc2)nc2ccccc12,0%,15,3,2,-57,
CCC(C)NC(=O)c1ccc2c(SCC(=O)O)c3c(nc2c1)CCCC3 (stereo not given),-12%,-1,2,-3,5.0,
Cc1cc(C)c(OCCCn2ccnc2)c(C)c1,/,/,/,-2,-1.3,
Cn1c(O)c(/C=C2\C=Nc3ccccc32)sc1=Nc1ccc(C(=O)O)cc1,1%,/,/,22,-1.7,
NC(=O)N/N=C/c1c(Sc2nnnn2-c2ccccc2)nc2ccccn2c1=O,-6%,/,/,1,27,
Cc1cc(NC(=O)CCCC(=O)N(CC(=O)NCCc2ccccc2)Cc2ccc(F)cc2)no1,-5%,-30,-4,-6,1.4,
CNC(=O)C(=O)N/N=C/c1cccnc1,2%,/,/,-3,0.0,
O=S(=O)(Nc1ccccn1)c1ccc(C(F)(F)F)cc1Cl,-3%,/,/,-3,-1.9,
Cc1ccc(-n2nc3c(=O)n(CC(=O)NCCc4ccccc4C)nc(C)c3c2C)cc1,/,/,/,-2,2.2,
O=C(Nc1ccc(S(=O)(=O)N2CCOCC2)cc1)c1ccc(Br)o1,1%,-19,11,-5,0.6,
COc1ccc(OC)c(-n2c(O)c(C=NCc3ccc4c(c3)OCO4)c(=O)[nH]c2=O)c1,1%,-56,6,3,-2.0,
O=C(CSC1=NCCN1)Nc1cccc(C(F)(F)F)c1,5%,/,3,-12,9.6,
CCCN(CC(=O)Nc1ccccc1C)C(=O)C1CC(=O)N(Cc2ccccc2)C1 (stereo not given),/,/,/,-7,0.0,
COc1ccc(Cc2n[nH]c(=S)n2N)cc1OC,-2%,/,-12,1,7.8,
O=C(NCCc1ccccc1)c1cnc2ccccn2c1=O,-11%,-5,6,1,-1.8,
COc1ccc(OC)c(NC(=O)c2ccc(CN3CCc4ccccc4C3)cc2)c1,/,/,/,61,3.4,
O=C(C1CCCO1)N1CCN(Cc2c(O)ccc3ccccc23)CC1 (stereo not given),3%,-2,-1,36,-11,
CCOc1ccc(N(CC(=O)NC2CCCCC2)S(=O)(=O)c2c(C)noc2C)cc1,-10%,-13,13,3,/,Arbovirus inh repeat=-2

# An excerpt from above in order of count of non-hydrogen atoms, lowest first:
SMILES,Mtb growth,YopH inh,Arbovirus inh,Mtb bLac sens,RecA splice inh,others
CNC(=O)C(=O)N/N=C/c1cccnc1,2%,/,/,-3,0.0,
COc1ccc(OC)c(NC(=O)c2ccc(CN3CCc4ccccc4C3)cc2)c1,/,/,/,61,3.4,
COc1ccc(OC)c(-n2c(O)c(C=NCc3ccc4c(c3)OCO4)c(=O)[nH]c2=O)c1,1%,-56,6,3,-2.0,

# New compounds follow
SMILES,Mtb growth,YopH inh,Arbovirus inh,Mtb bLac sens,RecA splice inh,others
COc1cccc(-c2ccc(NC(=O)C3CCCN(Cc4nccn4C)C3)cc2)c1 (stereo not given),/,/,/,38,0.7,
CN(Cc1nccn1C)C(=O)c1ccc(OC2CCN(CCc3ccccc3)CC2)cc1,/,/,/,-8,-0.6,
CCCc1nnc(NC(=O)CNc2ccc(F)cc2)s1,5%,-35,-2,-14,0.6,
COc1ccc(C(CNC(=O)C(CC(C)C)NS(=O)(=O)c2ccc(C)cc2)N2CCOCC2)cc1 (stereo not given),/,/,/,-5,2.0,
COc1ccc(-c2cc(C(=O)NN)[nH]n2)cc1OC,2%,/,-5,3,0.6,
CCC(=O)Nc1nnc(SCCN2CCOCC2)s1,-6%,-15,-1,-2,-1.8,
CN(C)c1ccc(S(=O)(=O)N2CCCCC2)cc1NC(=O)CN1C(=O)NC2(CCCC2)C1=O,/,/,/,-8,4.9,
CCC(=O)N1CCCc2cc(S(=O)(=O)N3CCCc4ccccc43)ccc21,-8%,-9,-9,-2,5.7,
COc1cc(C)c(-c2[nH]ncc2-c2csc(C)n2)c(O)c1,2%,2,1,1,-2.8,
Cc1ccccc1COc1ccc(/C=N/NC(=O)c2nnn(-c3nonc3N)c2CN2CCC(C)CC2)cc1,/,/,/,2,4.2,
CC1CCCCC1NC(=O)C1CC=CCC1C(=O)O (stereo not given),-1%,-26,1,-9,-2.6,
CCCCN(C)C(=O)c1nc2ccccn2c1CN1CCN(c2ccccn2)CC1,1%,/,-2,-7,2.6,
CN1C(C(=O)NCCc2cccs2)CC2Cn3c(nc4cc(Cl)c(Cl)cc43)C21 (stereo not given),-12%,/,/,-12,-4.0,
CCCOc1ccccc1NC(=O)CC1Nc2ccccc2NC1=O (stereo not given),5%,-13,0,4,0.4,
COc1ccc(/C=N/NC(=O)c2cccc(COCC(F)(F)C(F)F)c2)cc1,0%,-17,-17,-2,-1.7,
COc1ccc(CCn2cnc(=O)c(C#N)c2C)cc1OC,-4%,/,5,2,-0.9,
CCCCc1nn(-c2cc(Cl)ccc2OC)c2c1C(=O)CC(C)(C)C2,8%,-26,-36,-3,12,
Cc1ccc(OCC(=O)Nc2ccncc2)cc1,/,/,/,6,0.1,
CCOC(=S)SCC(=O)N1CCc2ccccc2C1C1C(=O)CC(C)(C)CC1=O (stereo not given),-9%,-38,1,-2,5.6,
O=C(NCC(=O)N(Cc1cccs1)C(C(=O)NC1CCCC1)c1cccnc1)c1ccco1 (stereo not given),-1%,-25,3,-7,-0.9,
Cc1cc(C)c(NC(=O)COC(=O)c2ccc([N+](=O)[O-])s2)c(C)c1,52%,-14,-3,11,1.2,
Cc1ccccc1N1CCN(CCCOc2ccc3c(C)cc(=O)oc3c2)CC1,11%,2,-20,95,2.4,
CCn1cc(C(=O)NCc2ccc3c(c2)OCO3)c(=O)c2cc(F)c(N3CCN(C(=O)c4ccco4)CC3)cc21,76%,3,-32,99,2.7,
O=C(Cc1ccc(F)cc1)NC1CCCC1,1%,-10,-3,8,0.3,
COc1ccc(OC)c(Nc2cc(C)nc3nc(C)nn23)c1,-12%,-42,-13,-2,1.7,Arbovirus inh repeat=-15

# Later entries:
SMILES,Mtb growth,YopH inh,Arbovirus inh,Mtb bLac sens,RecA splice inh,others
N/C(=N\OC(=O)COc1ccc(Br)cc1Cl)c1cccnc1,10%,0,-7,14,-1.3,
COc1cccc(NC(=O)CN2C(=O)COc3ccc(S(=O)(=O)N4CCCCCC4)cc32)c1,/,/,/,6,5.4,
CCOC(=O)c1c(C)[nH]c(C2=NNC(=Nc3ccccc3)SC2)c1C,58%,-21,-12,/,4.8,
Cc1cccc(OCCOCCN2CCNCC2)c1C,2%,-25,-6,-1,1.0,
COc1cc2c(cc1OC)C(C1C(=O)CC(C)(C)CC1=O)N(C(=O)CCl)CC2 (stereo not given),1%,-12,8,2,-7.2,
COc1cc2c(cc1OC)C(C)N(S(=O)(=O)c1ccc(Cl)nc1)CC2 (stereo not given),/,/,/,-10,1.8,
C=CCn1c(O)c(C(CC)=NCc2cc(OC)cc(OC)c2)c(=O)[nH]c1=O,2%,-7,-10,-2,/,
NC(=O)c1ccc(NC(=O)CSc2nnc(C3CCCCC3)n2N)cc1,/,/,/,3,-1.4,
OC1(c2cccs2)CN(c2ccccc2)C2=[N+]1CCCC2 (stereo not given),6%,/,-2,8,15,
C=CCSC1=C(C#N)C(c2cccc(OC)c2)CC(=O)N1 (stereo not given),-6%,-15,7,0,11,
Cc1ccc(NC(=S)N2CCN(S(=O)(=O)c3ccccc3)CC2)cc1,/,/,/,-7,0.5,
COc1ccc(C)cc1N(CC(=O)N1CCc2ccccc2C1)S(C)(=O)=O,-6%,/,-1,-15,3.5,
COc1ccc(OC)c(-n2c(O)c(C=Nc3c(C)n(C)n(-c4ccccc4)c3=O)c(=O)[nH]c2=S)c1,2%,/,/,2,-3.7,
CSc1nc2ncc(C(=O)O)c(N)n2n1,2%,/,12,-8,0.6,
O=C(N/C(=C\c1cccs1)C(=O)N1CCCCCC1)c1ccccc1,-14%,-18,-4,6,2.4,
CC(C)(C)OC(=O)N1Cc2ccccc2C[C@H]1C(=O)N1CCC[C@H]1C(=O)O,/,/,/,-5,2.1,

# These rows are one share of the data, so the mix of outcomes need not match the whole.
